Source: PubChem (National Center for Advancing Translational Sciences (NCATS))
miR-21 reporter: miR-21 reporter, rising signal; HeLa miR-21 FLuc reporter, luciferase, 48 h; Potency, µM (series often up to 38.3 µM), inactives show at the highest dose reporter change, positive = more light; 340,000 tested, under 10 active; AID 2288; active = well fitted rising curve with a large enough effect; inconclusive = small, poorly fitted or top-dose-only effect; inactive = no such curve, though single readings can be large or run the other way;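 also: % of control where 0% means no effect; miR-21 action dims this reporter so a rising signal means less miR-21 action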
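Using DMEM plus 10% FBS, HeLa miR-21-FLuc cells are incubated with test compounds (final up to about 40uM) for 48 hours; firefly luciferase signal is then imaged following reagent-mediated lysis.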
Rango dissoc inh: inhibitors of RanGTP-induced Rango-importin beta complex dissociation; O95149+P62826; Biochemical FRET Rango-importin beta, RanGTP-induced dissociation; 340,000 compounds, 0.071% hits; Potency, µM (titrated, usually from 46.1 µM), inactives show at the highest dose activity change, negative = inhibition; active means falling FRET ratio curve, often poorly fitted, with flat reads before Ran was added; inconclusive means other falling curves, or compound fluorescence or quenching; inactive means flat or rising ratio curve;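 also: potency is read from the fitted curve at half-maximal effect; % of control where 0% means no effect; nearly all actives have a fitted effect of over 45% in size; -100% = wells without RanGTP and RCC1; the record marks most hits as doubtful in a second field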
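Rango (0.1 uM)–importin beta (0.25 uM) complex; RanGTP-RCC1 trigger; 45 min RT; CFP/YFP FRET read.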
Rango-impB inh: Rango-importin beta binding inhibition; Potency, µM (highest dose often 92.2 µM), for inactives: at the top dose inhibition of complex formation; 340,000 compounds, 0.031% hits; Q14974; Rango CFP/YFP FRET sensor + importin beta, 45 min; AID 540263; active = rising FRET ratio curve, often small or poorly fitted; inconclusive = mostly compound fluorescence or quenching in the first reads; inactive = flat curves in all reads;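 also: potency is read from the fitted curve at half-maximal effect; 0% = DMSO wells and 100% = buffer wells lacking importin beta; nearly all actives have a fitted effect of over 15% in size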
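FRET biosensor (snurportin 1 IBB flanked by EYFP and cerulean), 50 nM, with compound 5 min, then 0.125 microM importin beta in PBS, 1 mM DTT, 0.02% Tween-20, 0.1% BSA. CFP/YFP ratio read after 45 min at room temperature; pre-read flags interference.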
GLA inh pH 4.5: blocks human alpha-galactosidase A at pH 4.5. purified enzyme, 4-MU-alpha-Gal fluorescence, pH 4.5. activity change, negative = inhibition, % at 105 µM. 230,000 tested, under 10 active. AID 1467; inconclusive = small, poorly fitted or top-dose-only inhibition, or a rising curve; inactive = flat fitted curve, though single readings scatter; no compound was filed as active;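 also: 0% = full activity with enzyme and -100% = basal without enzyme; dose as in the result columns while the protocol names 77 µM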
Target sequence (P06280 whole entry, looked up): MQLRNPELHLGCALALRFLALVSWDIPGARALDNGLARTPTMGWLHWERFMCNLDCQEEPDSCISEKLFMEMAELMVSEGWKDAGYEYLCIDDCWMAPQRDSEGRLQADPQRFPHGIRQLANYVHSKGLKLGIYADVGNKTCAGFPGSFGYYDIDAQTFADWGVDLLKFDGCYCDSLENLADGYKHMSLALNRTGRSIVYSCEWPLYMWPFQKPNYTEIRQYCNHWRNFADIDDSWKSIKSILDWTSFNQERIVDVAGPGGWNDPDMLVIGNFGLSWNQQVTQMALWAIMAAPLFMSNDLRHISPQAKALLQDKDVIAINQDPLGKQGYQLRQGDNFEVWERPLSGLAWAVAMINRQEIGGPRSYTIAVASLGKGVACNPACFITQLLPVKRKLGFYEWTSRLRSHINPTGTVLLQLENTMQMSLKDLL
* = called active by the depositor; ? = inconclusive; / = no result given; & = joins results of further samples. An excerpt. The share of hits here may be higher or lower than overall.

Order of values: Rango-impB inh | Rango dissoc inh | GLA inh pH 4.5 | miR-21 reporter
1: O=C(NCC(=O)N1CCN(c2ncccn2)CC1)c1ccc(F)cc1
    2.1% | 16% | / | /
2: CCC(=O)N(c1ccc(F)cc1)C1C=CS(=O)(=O)C1 (stereo unspecified)
    ? | -9% | 5 | 0%
3: O=C1C(=O)N(CCCO)C(c2ccc(Br)cc2)/C1=C(\O)c1ccc(Br)cc1 (stereo unspecified)
    -0.8% | -3% | / | -4%
4: COc1ccc(CCn2c(N)c(C(=O)NCc3ccco3)c3nc4ccccc4nc32)cc1OC
    ? | ? | 13 | 11%
5: COCCCn1cnnc1SC(C)C(=O)Nc1ccc(S(=O)(=O)N2CCOCC2)cc1 (stereo unspecified)
    -1.2% | 5% | / | /
6: COc1c(Cl)cc(Cl)cc1CNc1ccc(S(N)(=O)=O)cc1
    -2.4% | 1% | 2 | -2%
7: Cc1ccc2c(c1)c(-c1ccccc1)nc1nnnn12
    -0.6% | -1% | -4 | 3%
8: CC(C)(C)NC(=O)C(c1ccc(Cl)cc1)N(Cc1ccco1)C(=O)CCl (stereo unspecified)
    -0.4% | 0% | / | 0%
9: COc1cccc(C(=O)Nc2ccc(N3CCN(Cc4ccccc4)CC3)cc2)c1
    -2.0% | -8% | -14 | 15%
10: COC(=O)COc1ccc(-c2ccc(F)cc2)cc1C=O
    0.5% | -3% | -1 | 0%
11: Cc1ccc(C)c(N2CCN(c3ncnc4c3cnn4-c3ccccc3)CC2)c1
    -6.1% | 10% | -9 | 3%
12: CCN(CC)C(=O)CC(c1ccc2c(c1)OCO2)c1c(O)cc(OC)cc1OC (stereo unspecified)
    0.0% | 8% | 6 | 1%
13: CCc1ccccc1NC(=O)[C@@H]1CCC(=O)N1C1OC(=O)c2c1ccc(OC)c2OC (stereo partly specified)
    0.6% | -4% | / | -2%
14: Cc1cc(=O)oc(C)c1C(=O)NCCc1ccccc1
    0.3% | 3% | 2 | 3%
15: Cn1c(=O)c2c(nc(N3CCOCC3)n2CC(=O)C23CC4CC(CC(C4)C2)C3)n(C)c1=O
    0.7% | 10% | 3 | -13%
16: CCCCN(CCCC)CCNC(=O)c1cn(CC)c2ccc(S(=O)(=O)N3CCc4ccccc4C3)cc2c1=O
    0.5% | -12% | / | 3%&0%
17: S=c1[nH]nc2n1CCCN2
    0.6% | 3% | -1 | -22%
18: COc1ccc(CC(=O)NNc2ncnc3c2cnn3-c2ccccc2)cc1
    0.8% | -12% | -7 | -5%
19: COc1ccc(CCN2CC(C(=O)NCCc3ccccc3C(F)(F)F)CCC2=O)cc1 (stereo unspecified)
    0.6% | 1% | / | -24%
20: COc1ccc(C2SCC(=O)N2c2c(C)n(C)n(-c3ccccc3)c2=O)cc1OC (stereo unspecified)
    -2.0% | 0% | 4 | -9%
21: Cc1[nH]n(-c2ccccc2)c(=O)c1/C=N/NC(=O)c1cccc(F)c1
    1.2% | -2% | / | 4%
22: O=C(CCCN1C(=O)/C(=C\c2ccccc2)SC1=S)Nc1cccc(C(=O)O)c1
    -1.2% | 0% | / | 8%
23: COc1ccc(C)cc1NC(=O)c1ccc2c(O)c(S(=O)(=O)c3ccccc3)c(=O)[nH]c2c1
    -2.3% | -5% | / | 0%
24: CN(C)CCCNC(=O)c1ccc(Cl)c(S(=O)(=O)N2CCCCCC2)c1
    0.3% | 1% | / | /
25: c1cc(-c2nnn(CCOCCn3nnc(-c4ccncc4)n3)n2)ccn1
    -0.4% | 0% | / | -1%
26: O=C(Nc1nc(-c2ccccn2)cs1)c1ccccc1-n1cnnn1
    -3.4% | -7% | -1 | ?
27: CNC(=O)c1ccc(-c2nc(-c3ccccc3)cs2)cc1
    -0.2% | 18% | -3 | -62%
28: C(=N\Nc1ncnc2sc3c(c12)CCC3)/c1ccncc1
    -0.3% | 1% | -1 | -5%
29: Cc1c(NS(=O)(=O)c2cc(NC(=O)CCN3CCCC(C)C3)ccc2Cl)c(=O)n(-c2ccccc2)n1C (stereo unspecified)
    -5.3% | -16% | 3 | -2%
30: Cc1cc(NC(=O)Nc2ccc(F)c(Cl)c2)no1
    -2.5% | -1% | 0 | -14%
31: COc1ccccc1-n1nnnc1SCc1ccccc1
    0.1% | -8% | -10 | -2%
32: Oc1ccc(-c2n[nH]c(=S)n2-c2ccc3c(c2)OCCO3)cc1
    -0.2% | -6% | 1 | -37%
33: Cc1ccc(N2Cc3ccccc3OC(C)C2=O)cc1 (stereo unspecified)
    -2.6% | -4% | 0 | -4%
34: CCCCNC(=S)N(C)/N=C/c1c(C)[nH]c2ccccc12
    -0.8% | -2% | -4 | 11%
35: CC(=O)NC1CCN(CC(=O)Nc2cccc([N+](=O)[O-])c2)CC1
    1.2% | 1% | 9 | -1%
36: Cc1ccc(-c2noc(CN3CCN(c4ccccc4F)CC3)n2)cc1
    8.3% | -7% | 0 | -2%
37: CCOC(=O)N1CCN(S(=O)(=O)c2ccc(C(=O)NNc3nc4ccc(Cl)cc4s3)cc2)CC1
    -0.4% | -17% | -6 | 13%
38: COCCn1c(C)cc(/C=C2\NC(=S)N(C)C2=O)c1C
    ? | ? | -13 | -53%
39: Cc1cccc(OCC(=O)Nc2ccc(C(=O)NCc3cccnc3)cc2)c1
    / | / | 0 | 21%
40: N#Cc1ccccc1NC(=S)NC(=O)C1CCC1
    0.0% | -2% | / | 4%

Whole records, quoted from the list:
N#Cc1ccccc1NC(=S)NC(=O)C1CCC1 as listed: Rango-impB inh: 0.0%; Rango dissoc inh: -2%; GLA inh pH 4.5: /; miR-21 reporter: 4%
O=C(CCCN1C(=O)/C(=C\c2ccccc2)SC1=S)Nc1cccc(C(=O)O)c1 as listed: Rango-impB inh: -1.2%; Rango dissoc inh: 0%; GLA inh pH 4.5: /; miR-21 reporter: 8%

Next compounds.
Order of values: Rango-impB inh | Rango dissoc inh | GLA inh pH 4.5 | miR-21 reporter
41: CCC(C)(C)NC(=O)c1ccc2c(c1)OCCO2
    -5.1% | -2% | -2 | -28%
42: CCN(CC)S(=O)(=O)c1ccc(NC(=O)[C@@H](NC(=O)c2cc(OC)cc(OC)c2)C(C)C)cc1
    -0.7% | -9% | -8 | 0%
43: Cc1c(C(=O)N2CCCCC2C)sc2nc3n(c(=O)c12)CCC3 (stereo unspecified)
    5.9% | 1% | / | -1%
44: Fc1ccc(-c2ccc(/C=N/n3cnnc3)o2)cc1
    -2.3% | -14% | / | -5%
45: O=c1/c(=C/c2ccc(O)c([N+](=O)[O-])c2)sc2nc3ccccc3n12
    -1.6% | 1% | -4 | -23%
46: COc1ccc(OC)c(NC(=O)COC(=O)c2c3c(nc4ccccc24)CCCC3)c1
    -2.8% | 0% | -18 | 25%
47: Cc1cccc(C)c1OCCn1nc(C(=O)O)c2ccccc2c1=O
    3.1% | 3% | 1 | 13%
48: O=C(c1ccc2c(c1)OCCO2)C1CCN(C(=O)c2ccc(F)cc2)CC1
    -5.6% | -15% | -4 | 5%
49: O=C(NCCSCc1ccco1)Nc1cc(Cl)cc(Cl)c1
    ? | -7% | -2 | -2%
50: COc1ccc(S(=O)(=O)n2ccc(C(C)Oc3ccc(-c4ccccc4)c(F)c3)n2)cc1 (stereo unspecified)
    -3.2% | 25% | -2 | 26%
51: CCCN1CCN(S(=O)(=O)c2c(C)[nH]c(C)c2C(=O)N2CCCCC2)CC1
    -1.6% | 6% | / | -3%
52: CC(NS(=O)(=O)c1ccc([N+](=O)[O-])cc1)C(c1cccs1)N1CCOCC1 (stereo unspecified)
    0.0% | ? | -20 | 0%
53: O=C(NCC1CCCO1)c1cnc(Cl)c(Cl)c1 (stereo unspecified)
    -0.3% | 15% | / | -4%
54: O=C(/C=C/c1ccc(O)c(O)c1)c1ccccc1O
    3.7% | -7% | -2 | -58%
55: COc1ccc(NC(=O)c2cccc(S(=O)(=O)N3CCOCC3)c2)cn1
    -0.2% | 3% | 0 | 0%
56: Cc1ccccc1C(=O)N1CCC(C(=O)N2CCCc3ccccc32)CC1
    -4.0% | 2% | / | /
57: COc1ccc(/C=C2/SC(=S)NC2=O)cc1OCc1ccccc1
    -4.4% | -9% | / | -1%
58: CN1CCN(S(=O)(=O)c2ccc(NC(=O)c3cccc(F)c3)cc2)CC1
    -4.4% | -3% | / | -13%
59: Cc1c(NC(=S)Nc2ccccc2C(F)(F)F)cccc1[N+](=O)[O-]
    2.6% | 2% | 15 | -5%
60: Cc1ccc(Cl)cc1N1CCN(Cc2nc3ccsc3c(=O)[nH]2)CC1
    -5.8% | -11% | 0 | 8%
61: Cc1n[nH]c(=O)nc1N/N=C/c1ccc(O)c([N+](=O)[O-])c1
    -1.4% | 17% | -2 | -10%
62: CC1CC(C)CN(C(=O)COC(=O)c2cc(S(=O)(=O)N3CCOCC3)ccc2F)C1 (stereo unspecified)
    1.4% | 0% | / | /
63: Fc1ccc(-c2csc(N3CCSCC3)n2)cc1
    -1.1% | -7% | 9 | -46%
64: CCC1(CC)Cc2ccccc2C(=C(C#N)C#N)N1
    -0.6% | ? | -4 | -7%
65: O=C(c1cc(=O)[nH]c2ccccc12)N1CCN(c2ccc([N+](=O)[O-])cc2)CC1
    -2.4% | 1% | -1 | 10%
66: Clc1ccc2c(NCc3ccco3)ncnc2c1
    -5.6% | -11% | 1 | 3%
67: Cc1nn(CCO)c2c1C(=O)CCC2
    -1.6% | 7% | 9 | 1%
68: CCn1c(=N)c(S(=O)(=O)c2ccccc2)cc2c(=O)n3ccccc3nc21
    ? | ? | -17 | -9%
69: Cc1ccc(-c2ccc(OCC(=O)N3CCOCC3)cc2)cc1
    -1.1% | -3% | -2 | -25%
70: CC(CN1CCN(c2ccccc2)CC1)c1ccccc1 (stereo unspecified)
    1.0% | 8% | -6 | -2%

In a second layout: five of the compounds above
| No. | compound | Rango-impB inh | Rango dissoc inh | GLA inh pH 4.5 | miR-21 reporter |
| --- | --- | --- | --- | --- | --- |
| 63 | Fc1ccc(-c2csc(N3CCSCC3)n2)cc1 | -1.1% | -7% | 9 | -46% |
| 64 | CCC1(CC)Cc2ccccc2C(=C(C#N)C#N)N1 | -0.6% | ? | -4 | -7% |
| 65 | O=C(c1cc(=O)[nH]c2ccccc12)N1CCN(c2ccc([N+](=O)[O-])cc2)CC1 | -2.4% | 1% | -1 | 10% |
| 66 | Clc1ccc2c(NCc3ccco3)ncnc2c1 | -5.6% | -11% | 1 | 3% |
| 67 | Cc1nn(CCO)c2c1C(=O)CCC2 | -1.6% | 7% | 9 | 1% |
